Compound activity from PubChem BioAssay.
Rango-impB inh = prevents formation of the Rango-importin beta complex; Rango CFP/YFP FRET sensor + importin beta, 45 min; 340,000 tested, 0.031% active; Potency, µM (doses to about 92.2 µM), without a hit: at the top dose inhibition of complex formation; Q14974; active = rising FRET ratio curve, often small or poorly fitted; inconclusive = mostly compound fluorescence or quenching in the first reads; inactive = flat curves in all reads;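 note: potency is the fitted concentration of half-maximal effect; 0% = DMSO wells and 100% = buffer wells lacking importin beta; nearly all actives have a fitted effect of over 15% in size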
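Inhibition scored from the CFP 486 nm/YFP 530 nm FRET ratio 45 min after adding 0.125 microM importin beta to 50 nM Rango biosensor preincubated 5 min with compound (room temperature, PBS with DTT, Tween-20, BSA). No-importin wells as positive control.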
miR-21 FLuc = miR-21 reporter, rising signal | HeLa miR-21 FLuc reporter, luciferase, 48 h | Potency, µM (series often up to 38.3 µM), for the others: at the top dose reporter change, positive = more light | 340,000 tested, under 10 active | AID 2288; active = well fitted rising curve with a large enough effect; inconclusive = small, poorly fitted or top-dose-only effect; inactive = no such curve, though single readings can be large or run the other way;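 note: % of control where 0% means no effect; miR-21 action dims this reporter so a rising signal means less miR-21 action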
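Using DMEM plus 10% FBS, HeLa miR-21-FLuc cells are incubated with test compounds (final up to about 40uM) for 48 hours; firefly luciferase signal is then imaged following reagent-mediated lysis.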
GLA inh pH 4.5 = inhibitors of human alpha-galactosidase A at pH 4.5; 230,000 tested, under 10 active; activity change, negative = inhibition, % at 105 µM; purified enzyme, 4-MU-alpha-Gal fluorescence, pH 4.5; inconclusive = small, poorly fitted or top-dose-only inhibition, or a rising curve; inactive = flat fitted curve, though single readings scatter; no compound was filed as active;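 note: 0% = full activity with enzyme and -100% = basal without enzyme; dose as in the result columns while the protocol names 77 µM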
Target sequence (P06280 whole entry, looked up): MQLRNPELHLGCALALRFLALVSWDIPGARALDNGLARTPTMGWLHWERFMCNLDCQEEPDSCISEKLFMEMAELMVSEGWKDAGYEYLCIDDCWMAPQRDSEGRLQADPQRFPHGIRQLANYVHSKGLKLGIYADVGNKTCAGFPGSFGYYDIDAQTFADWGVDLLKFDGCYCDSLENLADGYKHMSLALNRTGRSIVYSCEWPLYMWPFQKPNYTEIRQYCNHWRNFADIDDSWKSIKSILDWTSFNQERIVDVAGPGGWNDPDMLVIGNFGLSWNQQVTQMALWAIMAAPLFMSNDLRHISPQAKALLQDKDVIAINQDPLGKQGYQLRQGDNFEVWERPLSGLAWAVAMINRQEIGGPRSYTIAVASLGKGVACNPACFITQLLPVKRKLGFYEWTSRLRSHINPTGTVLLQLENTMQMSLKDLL
Rango dissoc inh = inhibition of RanGTP-driven Rango-importin beta dissociation | O95149+P62826 | AID 540253 | Potency, µM (series often up to 46.1 µM), for inactives: at the top dose activity change, negative = inhibition | 340,000 tested, 0.071% active | Biochemical FRET Rango-importin beta, RanGTP-induced dissociation; active means falling FRET ratio curve, often poorly fitted, with flat reads before Ran was added; inconclusive means other falling curves, or compound fluorescence or quenching; inactive means flat or rising ratio curve;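 note: potency is the fitted concentration of half-maximal effect; % of control where 0% means no effect; nearly all actives have a fitted effect of over 45% in size; -100% = wells without RanGTP and RCC1; the record marks most hits as doubtful in a second field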
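Two FRET readings bracket the reaction: one 5 min after compound meets Rango–importin beta, another 45 min after RanGTP-RCC1 (0.6 uM Ran, 0.2 uM RCC1, 2 mM GTP) is added. Only the second defines inhibition.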
Starred values were filed as active, the others as inactive; u = inconclusive; x = not tested or not shown. An excerpt; the hit share may differ from the screen's.

Rango-impB inh | miR-21 FLuc | GLA inh pH 4.5 | Rango dissoc inh | smiles
-3.7% | 2% | x | 1% | COc1ccc(CN(C)C(=O)CNC(=O)Cc2cccc3ccccc23)c(OC)c1OC
-0.2% | 1% | x | 8% | O=C1NC2=C(C(=O)CCC2)C(c2ccccc2Cl)N1 (configuration not stated)
u | -1% | 5 | u | N#C/C(=C(/O)COC(=O)CCCNC(=O)c1ccc(Cl)cc1)c1nc2ccccc2[nH]1
0.3% | -8% | 4 | 0% | CCc1nnc(N/N=C/c2c(C)[nH]c3ccccc23)n1N
1.2% | -3% | 5 | 8% | COc1ccc(Cn2nnnc2CN2CCOCC2)cc1
-0.1% | 9% | 9 | -3% | CCOC(=O)c1c(NC(=O)C2C3C=CC(C3)C2C(=O)O)sc2c1CC(C)CC2 (configuration not stated)
3.2% | -5% | 8 | 19% | Cn1nnnc1SCC(=O)Nc1ccccc1Cc1ccccc1
0.5% | -9% | -6 | -30% | COc1ccc(-c2cc(-c3ccccc3)nc(SCC(=O)Nc3nccs3)c2C#N)cc1

Random excerpt: 3 records from the list.
Rango-impB inh | miR-21 FLuc | GLA inh pH 4.5 | Rango dissoc inh | smiles
0.3% | -8% | 4 | 0% | CCc1nnc(N/N=C/c2c(C)[nH]c3ccccc23)n1N
3.2% | -5% | 8 | 19% | Cn1nnnc1SCC(=O)Nc1ccccc1Cc1ccccc1
-3.7% | 2% | x | 1% | COc1ccc(CN(C)C(=O)CNC(=O)Cc2cccc3ccccc23)c(OC)c1OC

Next section
Rango-impB inh | miR-21 FLuc | GLA inh pH 4.5 | Rango dissoc inh | smiles
-4.5% | -15% | 2 | -1% | N/C(=N\OC(=O)c1ccc(Br)o1)c1ccccn1
1.9% | -3% | 9 | -2% | Cc1ccc(-c2csc(NC(=O)N3CCOCC3)n2)cc1
-0.8% | -4% | 0 | -29% | COC(=O)C(Cc1ccccc1)NC(=O)CSc1nc(N)cc(=O)[nH]1 (configuration not stated)
2.9% | 2% | 0 | 6% | CC(=O)Oc1ccc(C(=O)Nc2cc(NC(=O)c3ccc(OC(C)=O)cc3)cc(C(=O)NC(C)(C)C)c2)cc1
7.5% | -1% | 4 | -9% | O=C1CCCC(=O)N1c1ccc(O)cc1
-0.2% | -1% | -2 | 0% | Cc1ncc(CO)c2cc(C(N)=O)c(=Nc3ccccc3)oc12
-0.3% | -9% | -8 | 12% | Cc1ccc(C)c(Cn2c(CO)nc3ccccc32)c1
u | -3% | x | -17% | COCC1CCCCN1C(=O)c1ccc(OC2CCN(Cc3ccccn3)CC2)cc1 (configuration not stated)

Sorted by the number under Rango-impB inh (high to low): three from the list above.
Rango-impB inh | miR-21 FLuc | GLA inh pH 4.5 | Rango dissoc inh | smiles
-0.1% | 9% | 9 | -3% | CCOC(=O)c1c(NC(=O)C2C3C=CC(C3)C2C(=O)O)sc2c1CC(C)CC2 (configuration not stated)
-0.2% | 1% | x | 8% | O=C1NC2=C(C(=O)CCC2)C(c2ccccc2Cl)N1 (configuration not stated)
-3.7% | 2% | x | 1% | COc1ccc(CN(C)C(=O)CNC(=O)Cc2cccc3ccccc23)c(OC)c1OC

The list goes on.
Rango-impB inh | miR-21 FLuc | GLA inh pH 4.5 | Rango dissoc inh | smiles
0.7% | 18% | x | -10% | Cc1ccc(C(=O)N2CCCC(CCC(=O)N3CCN(c4ccccn4)CC3)C2)cc1C (configuration not stated)
-2.5% | 2% | -3 | 20% | Cc1cc(C)cc(N2CC(C(=O)O)CC2=O)c1 (configuration not stated)
-2.0% | -11% | x | 1% | Cc1cccc(C(=O)NC2CCN(CC(=O)Nc3ccccc3Cl)CC2)c1
7.7% | -6% | 0 | -12% | O=C(COc1ccccc1Cl)N(Cc1ccco1)C1CCS(=O)(=O)C1 (configuration not stated)
-0.7% | 9% | x | -8% | Cc1ccc(NC(=O)CSc2nnc(NC(=O)C(C)C)s2)c(C)c1
u | -3% | -5 | -13% | COc1nc(-c2cccc([N+](=O)[O-])c2)nc2ccccc12
-3.5% | x | x | 0% | O=C1c2ccccc2C(=O)N1OCCCN1C(=O)c2ccccc2S1(=O)=O
0.8% | -26% | x | -10% | O=C(NNC(=O)c1ccccc1F)c1ccc2[nH]c(=O)c(=O)[nH]c2c1
3.3% | 0% | x | -9% | Cc1oc2c(CN3CCCCC3)c(O)ccc2c(=O)c1-c1ccc(Cl)cc1
1.2% | 27% | x | -6% | CN(c1ncnc(N)c1[N+](=O)[O-])C1CCCCC1
2.2% | -6% | -17 | 0% | CSc1ncccc1C(=O)OCC(=O)NC(C)(C)C
-1.9% | -7% | 7 | 0% | O=C(Nc1ccccc1)C1=C(O)CC(c2ccco2)CC1=Nc1ccccc1 (configuration not stated)
-3.0% | -5% | 7 | -3% | Cc1ccc(S(=O)(=O)N2CCN(C(=O)N(C)C)CC2)cc1C
u | -9% | -4 | u | COc1ccc(OC)c(N/C=C2/CCCCC2=O)c1
7.5% | x | x | 15% | Cc1nnc(SCCn2c(N(C)Cc3ccccc3)nc3c2c(=O)n(C)c(=O)n3C)s1
-1.4% | 4% | x | 18% | Cc1ccc(C(=O)Nc2ccncc2)cc1[N+](=O)[O-]

Molecules from the list above with two or more sulfur atoms, in the order listed:
Rango-impB inh | miR-21 FLuc | GLA inh pH 4.5 | Rango dissoc inh | smiles
0.5% | -9% | -6 | -30% | COc1ccc(-c2cc(-c3ccccc3)nc(SCC(=O)Nc3nccs3)c2C#N)cc1
-0.7% | 9% | x | -8% | Cc1ccc(NC(=O)CSc2nnc(NC(=O)C(C)C)s2)c(C)c1
7.5% | x | x | 15% | Cc1nnc(SCCn2c(N(C)Cc3ccccc3)nc3c2c(=O)n(C)c(=O)n3C)s1

New compounds follow:
Rango-impB inh | miR-21 FLuc | GLA inh pH 4.5 | Rango dissoc inh | smiles
-1.5% | 3% | -3 | 0% | CCOP(=O)(OCC)C(NC(=O)c1ccc(OC)c(OC)c1)c1ccccc1 (configuration not stated)
-4.8% | -11% | -9 | 15% | CCOC(=O)c1cc(-c2ccc(OC(F)F)cc2)nc2c1c(=O)[nH]c(=O)n2C
2.9% | -28% | x | 15% | Cc1ccc2c(COC(=O)c3ccccc3Cl)cc(=O)oc2c1
1.2% | 5% | x | 8% | COc1ccc(C(=O)C2CCCN(C(=O)c3cccc(Cl)c3F)C2)cc1OC (configuration not stated)
-2.6% | 15% | 3 | 12% | COC(=O)Cn1c(=O)c(C(=O)CCl)c(N)n(Cc2ccccc2)c1=O
5.3% | -35% | x | 0% | CCCCc1nc2cc(C(=O)N(C)C(C)c3ccccn3)ccc2o1 (configuration not stated)
0.2% | 20% | -11 | 1% | COc1ccc(C2CC(O)(c3ccccc3)Oc3cc(OC)ccc32)cc1 (configuration not stated)
-0.3% | x | x | -3% | CCCN(CC(=O)Nc1ccccc1C)C(=O)C1CCN(C(=O)Nc2ccccc2)CC1
0.4% | -5% | x | 3% | O=C(Nc1cccc(NC(=O)c2ccc(Cl)cc2)n1)c1ccc(Cl)cc1
1.3% | x | x | -10% | Cc1ccc(OCC(=O)Nc2cccc(S(=O)(=O)N3CCCCCC3)c2)cc1C
0.5% | -10% | -2 | -2% | CCOc1ccccc1NC(=O)CCN(c1ccc(C)cc1)S(=O)(=O)c1ccccc1
-2.4% | 1% | x | -1% | CN1C(=O)c2ccc(C(=O)NCc3ccccn3)cc2C1=O
-2.0% | -3% | x | 13% | NC(=O)CN1C(=O)C(=O)N(Cc2ccccc2)C1=O
u | -13% | 1 | 2% | CC1CCCN(CCC(=O)Nc2ccc3c(c2)CCC3)C1 (configuration not stated)
-0.7% | -2% | 19 | -4% | COc1ccc(N(CC(=O)N/N=C(\C)CCc2ccccc2)S(=O)(=O)c2ccc(C)cc2)cc1
-3.8% | -5% | -6 | -10% | Cc1ccc(C(=O)NC2CCN(CC(=O)Nc3cccc([N+](=O)[O-])c3)CC2)cc1
-3.4% | x | x | -2% | Cc1ccccc1C(=O)NNC(=O)C1CCN(C(=O)Nc2ccccc2)CC1
-0.5% | -2% | -2 | 11% | O=C(Nc1ccccc1C(=O)O)c1cc(S(=O)(=O)N2CCOCC2)cs1
-1.6% | -29% | 2 | 2% | Cc1cc(C)nc(Nc2ccc(N3CCOCC3)cc2)n1
u | -6% | 10 | u | Cc1c(C(=O)Nc2ccccc2)cn2c(nc3ccccc32)c1C#N
1.5% | 19% | x | -23% | O=C(N/N=C/c1cc(Br)ccc1OC(=O)c1ccc(Br)cc1)c1ccncc1
-3.5% | 29% | -2 | -4% | CCc1ccc(C2c3[nH]c4ccccc4c3CCN2C(=O)c2ccc(=O)n(C)n2)cc1 (configuration not stated)
5.2% | -5% | 2 | 6% | CC1CCN(C(=O)C2CCN(S(=O)(=O)c3cnc[nH]3)CC2)CC1
-1.9% | 1% | -4 | 0% | NC(CCCCCP(=O)(c1ccccc1)c1ccccc1)C(=O)O (configuration not stated)
-2.9% | -1% | -1 | 9% | Cc1sc2nc(SCC(=O)NCCO)n(C)c(=O)c2c1C
-3.9% | 4% | -1 | -10% | O=C(Nc1ccc(N2CCCCC2)cc1)c1ccc2c(c1)OCCO2
3.3% | -1% | x | 20% | Nc1ccn(C2CC(O)C(CO)O2)c(=O)n1 (configuration not stated)
9.6% | -9% | 13 | -22% | COC(=O)c1ccc(OC(=O)C2CC(=O)N(c3cccc(C)c3)C2)cc1 (configuration not stated)
0.9% | -10% | -6 | 18% | C/C(=N\N=C(/N)SC1CC(=O)N(c2ccccc2)C1=O)c1cccs1 (configuration not stated)
-1.0% | -2% | 1 | 1% | COC(=O)C1(C)NC(c2ccco2)C2C(=O)N(c3ccc(C)cc3)C(=O)C21 (configuration not stated)
1.4% | 0% | 12 | 7% | CCCCc1ccc(S(=O)(=O)NNC(=S)NCc2ccco2)cc1
-3.4% | x | x | 2% | COCCN(CC(=O)Nc1cccc(C)c1C)C(=O)C1(c2ccccc2)CC1
-0.2% | x | x | -2% | Cc1cccc([C@@H]2[C@@H]3C(=O)N(Cc4ccccc4)C(=O)[C@@H]3[C@]3(Cc4ccccc4)C(=O)N(c4ccccc4)C(=O)N23)c1
3.0% | -30% | -3 | 1% | COC(=O)C(NC=O)C(O)(Cc1ccccc1)C(F)(F)F (configuration not stated)
u | -3% | -11 | -4% | O=C(Nc1ccc(F)cc1)C(c1ccccc1)N1CCN(S(=O)(=O)c2ccccc2)CC1 (configuration not stated)
0.0% | -6% | -9 | -3% | CCCCSCCCNC(=O)CS(=O)Cc1nc(-c2cccc(C)c2)oc1C (configuration not stated)
2.1% | x | x | 15% | CC(C)Oc1ccc(C(=O)OCC(=O)NC2CCCCCC2)cc1
-0.5% | -12% | -6 | -12% | CC(C)N(Cc1nc(-c2ccccc2)no1)C(=O)Cc1ccccc1
-2.1% | -6% | x | 4% | CC(=O)c1cccc(N2C(=NC(=O)C3CCCCC3)SC3CS(=O)(=O)CC32)c1 (configuration not stated)
0.3% | -5% | 2 | -5% | CN(c1ccc(OCC(=O)OCC(=O)Nc2ccc(F)cc2)cc1)S(=O)(=O)c1ccc(Cl)cc1
-0.5% | x | x | 0% | CCCCn1c(N)c(N(CCOC)C(=O)c2ccc(OCc3c(C)noc3C)cc2)c(=O)[nH]c1=O
0.7% | -4% | x | -12% | CCN(CC)S(=O)(=O)c1ccc(NC(=O)c2cnc(C)cn2)cc1
1.3% | -8% | 1 | 23% | Cc1ccccc1-n1c(Cn2c(=O)sc3ccccc32)nnc1SCC(=O)NCC1CCCO1 (configuration not stated)
0.4% | -1% | 2 | 31% | COc1ccc(CNC(=O)CSc2nnc(Cn3nnc4ccccc43)n2C)cc1
x | -8% | -3 | x | O=C1NN(c2ccccc2)C(=O)/C1=C/c1cccs1
0.1% | -7% | -2 | 0% | O=C(Nc1ccc2c(c1)OCCO2)c1cc2ccccc2o1
0.5% | -2% | 10 | 0% | COc1ccc(C2(C(=O)NCc3ccccc3Cl)CCOCC2)cc1OC
-0.1% | x | x | 0% | CC1CCN(C(=O)COc2ccc(S(=O)(=O)N3CCOCC3)cc2)CC1
0.7% | 4% | x | 8% | [N-]=[N+]=NCCN1CCN(Cc2ccccc2)CCC1=O
u | 0% | 4 | -13% | CSC1=C(C#N)C(c2ccccc2Cl)C(C(C)=O)=C(C)N1 (configuration not stated)
0.1% | -3% | x | u | CC(=O)Nc1ncc(N=Nc2cccc(C(F)(F)F)c2)s1
-4.3% | -24% | 7 | 23% | Cc1c(C(=S)Nc2ccccc2)cnn1-c1ccccc1
3.2% | -67% | 2 | 33% | COc1ccc(NC(=O)c2ccc(C)cc2)c(OC)c1
